V. cholerae QS: Vibrio cholerae quorum sensing activators, luminescence (AID 686977); one-dose luminescence at 50 µM unless noted; EC50 in µM for titrated hits; 9,400 tested, under 10 active; V. cholerae quorum sensing reporter, luminescence, 6 h; higher luminescence means a stronger effect; most inactives read 0;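 active = light above mean plus 3 SD and confirmed in a dose series; inconclusive = above that limit without a clear retest; inactive = below it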;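 also: raw light counts without normalisation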
The depositor's hits bear a star; u = inconclusive; [ ] = remark or other dose.

SMILES	V. cholerae QS
Cc1cccc(N(C)C(=O)COc2cc(=O)n(C)c3ccccc23)c1	40
CCCCn1nnnc1SCC(=O)Nc1ccc2c(c1)OCO2	0
C=Cn1ccnc1P(=S)(c1nccn1C=C)c1nccn1C=C	0
O=C(CN1C(=O)C2C3C=CC(C3)C2C1=O)Nc1ccc2nccnc2c1 (stereo unspecified)	0
C/C(=C\c1ccccc1)C(=O)NC1CCSC1=O (stereo unspecified)	u
Cn1nc(C(F)(F)F)c(/C=N/OC(=O)c2ccccc2Cl)c1SCc1ccccc1Cl	0
CCOC(=O)Cn1c(=O)oc2cc(S(=O)(=O)NCCC(C)C)ccc21	0
CCC(=O)N1N=C(c2ccc(NS(C)(=O)=O)cc2)CC1c1ccc(C)cc1 (stereo unspecified)	40
Cc1cc(C(=O)NCc2ccco2)on1	40
CCCCC(CC)CN=C(N)NC(N)=NCCCCCCN=C(N)NC(N)=NCC(CC)CCCC (stereo unspecified)	40[10 µg/mL]
COC(=O)C(CCSC)NC(=O)Cn1ncc2c(=O)oc3ccc(C)cc3c21 (stereo unspecified)	0
Nc1nc(-n2cnnc2)nn1-c1ccccc1	40
CC(C(=O)O)c1ccc(-c2ccccc2)c(F)c1 (stereo unspecified)	40[10 µg/mL]
O=S(=O)(NCCc1csc(-c2cccnc2)n1)c1cccs1	40
CN1CCN(CC(=O)N2c3ccccc3C(=O)Nc3cccnc32)CC1	40[10 µg/mL]
CN[C@H]1[C@@H](O)[C@H](O[C@H]2[C@@H](O)[C@@H](OC3OC(CN)=CCC3N)[C@H](N)C[C@@H]2N)OC[C@@]1(C)O (stereo partly specified)	40[10 µg/mL]
COc1ccc(/C=N/NC(=O)c2cc(C34CC5CC(CC(C5)C3)C4)[nH]n2)cc1O	0
N/C(CN1CCCC1=O)=N\OC(=O)c1ccccc1Cl	u
Cc1sc2nc(SCC(=O)N3CCCC3)[nH]c(=O)c2c1C	0
COc1cccc(-c2nc(CS(=O)(=O)CC(=O)NCc3ccc(Cl)cc3)c(C)o2)c1	u
COc1ccc(-c2cc3ccccc3n2CC(O)CN2CCN(CCO)CC2)cc1 (stereo unspecified)	0
Cn1c2ccccc2c2c(C(=O)N3CCN(c4ccccn4)CC3)cn(C3CCCC3)c(=O)c21	40
Clc1ncnc2scc(-c3ccccc3)c12	40
C[N+](C)(C)CCOC(N)=O	160[10 µg/mL]
CCC(=O)N1c2ccc(S(=O)(=O)CCC(=O)N3CCC4(CC3)OCCO4)cc2CC1C (stereo unspecified)	u
CC(C)CSc1nc2ccccc2c(=O)[nH]1	0
CC1(C)N=C(N)N=C(N)N1c1cccc(C(=O)O)c1	0
COc1ccc(NC(=O)C2CCC(CNc3c(N4CCCCC4)c(=O)c3=O)CC2)cc1OC (stereo unspecified)	0
Cc1ccc(N2CSC3=C(C#N)C(c4cccs4)CC(=O)N3C2)cc1 (stereo unspecified)	0
COc1cccc(C(C#N)N2CCOCC2)c1 (stereo unspecified)	0
COC(=O)C(C)Oc1ccc2c(-c3cccc([N+](=O)[O-])c3)cc(=O)oc2c1 (stereo unspecified)	0
CC(C)NCC(O)c1ccc(NS(C)(=O)=O)cc1 (stereo unspecified)	40[10 µg/mL]
O=C(CCc1ccccc1)Nc1ccc(NC(=O)c2ccco2)cc1	0
Cc1ccc(C(=O)OCC(=O)Nc2sccc2C(N)=O)cc1NC(=O)c1ccco1	280
O=S(=O)(c1ccc(Br)cc1)N1CCN(c2ccc3nnc(-c4ccccc4)n3n2)CC1	0
C=CCSc1n[nH]c(-c2ccc(OCCC)cc2)n1	40
Cc1ccc(C(C(=O)NC2CCCC2)N2CCc3ccccc32)cc1 (stereo unspecified)	40
COC(=O)CNC(=O)C1CCCN1C(=O)OC(C)(C)C (stereo unspecified)	240
Cc1nn(-c2cccc(Cl)c2)c2c1C(c1cccnc1)C(C#N)=C(N)O2 (stereo unspecified)	0
CC(=O)[C@H]1CC[C@H]2[C@@H]3C=CC4=CC(=O)CC[C@@]4(C)[C@@H]3CC[C@]12C	0[10 µg/mL]
O=C(O)c1cccc(NS(=O)(=O)c2cccc3nsnc23)c1	0
N#CC(=C=[N-])C1=C(C#N)C(c2ccccc2F)C([n+]2ccccc2)C(O)(C2CC2)N1 (stereo unspecified)	0
O=C(Cn1nnc(-c2ccccc2NC(=O)c2cccs2)n1)Nc1ccccc1	0
CCOC(=O)Cn1c(S(=O)(=O)Cc2ccc(F)cc2)nc(-c2ccccc2)c1-c1ccccc1	0
COc1cc(NC(=O)c2cc3c(C)nc4ccccc4c3o2)cc(OC)c1OC	0
Fc1ccc(-c2nnc(CSc3nnc(-c4ccc5c(c4)OCO5)o3)o2)cc1	0
COc1ccc(CCC(C)Nc2ccc(F)cc2)cc1 (stereo unspecified)	0
O=C(CCSCCc1ccccn1)Nc1nccs1	40
Cc1cc(C)c(S(=O)(=O)ON2C(=O)c3ccccc3C2=O)cc1C	u
CCS(=O)(=O)c1ccc2oc(SCC(=O)NC(C)C3CC4CCC3C4)nc2c1 (stereo unspecified)	0
O[C@@H]1CCCC[C@H]1N1CCC(c2ccccc2)CC1	u
COc1ccc2oc(C(=O)CCC(=O)O)c(N)c2c1	0
Cc1cc(C)cc(NS(=O)(=O)c2ccc3c(c2)c(=O)n(C)c(=O)n3C)c1	40
CNC(=O)CN1C(=O)CSc2ncccc21	0
COc1ccc(OCC(=O)N2CC3(C)CC2CC(C)(C)C3)cc1 (stereo unspecified)	u
Cc1nnc(NC(=O)CSc2nnc(Cc3cccn3C)n2C)s1	0
Cn1[nH]c(=O)c(Cl)c(Cl)c1=O	40
O=C(Cn1cc2c(n1)CCCC2)NCC1CCCO1 (stereo unspecified)	0
CCCCc1ccc2nc(NC(=O)OC)[nH]c2c1	u
Cc1c(NC(=O)c2ccc(Br)o2)c(=O)n(-c2ccccc2)n1C	0

The list goes on:
SMILES	V. cholerae QS
COc1ccc(CC(NC(C)=O)C(=O)NC2CCN(C(=O)NCc3ccccc3)CC2)cc1 (stereo unspecified)	40
CC(C)CCNC(=O)C(Cc1ccccc1)NS(=O)(=O)c1ccc2c(c1)c(=O)n(C)c(=O)n2C (stereo unspecified)	0
COc1ccc(CNC(=O)c2cnc3cc(C)ccn3c2=O)cc1	0
COc1cccc2c1C(=O)c1c(O)c3c(c(O)c1C2=O)C[C@@](O)(C(=O)CO)C[C@@H]3O[C@H]1C[C@H](N)[C@H](O)[C@H](C)O1	0[10 µg/mL]
Cc1ccc(S(=O)(=O)NCc2ccc3c(c2)cc(C)n3C)cc1	280
COC(=O)CC1=C(C(=O)OC)C(c2cc(OC)c(OC)cc2OC)C(C#N)=C(N)O1 (stereo unspecified)	0
Cc1ccc(C(=O)Nc2nc3nc(-c4ccccc4)cc(=O)n3[nH]2)cc1	200
O=C(NCCCc1ccccc1)C1CCN(c2nnc(-n3cccc3)s2)CC1	0
CCC(=O)N1c2ccc(S(=O)(=O)CCC(=O)N3CCN(c4ccccc4)CC3)cc2CC1C (stereo unspecified)	0
c1ccc(-c2n[nH]c3ccccc23)cc1	0
c1cnc(N2CCN(Cc3ccc4c(c3)OCO4)CC2)nc1	240[10 µg/mL]
COc1cc(SC)ccc1C(=O)Nc1ccc2c(c1)OCCO2	40
O=C(OC1CCOC1=O)c1cc(-c2ccc(Br)cc2)nc2ccccc12 (stereo unspecified)	240
Cc1ccccc1-c1noc(CCC(=O)NCC2CCCO2)n1 (stereo unspecified)	240
CCn1c(SCC(=O)NCc2ccco2)nc2c(c1=O)SC(C)C2 (stereo unspecified)	0
Cc1cccc(C)c1NC(=O)c1sccc1SCc1cccc(C(F)(F)F)c1	40
COc1ccc(C(=O)NCC(c2cccnc2)N2CCN(c3ccccc3OC)CC2)cc1OC (stereo unspecified)	0
Cc1cc(NC(=O)CC2CCCC2)n(-c2nc3ccccc3[nH]2)n1	40
C=C(NC(=O)C(=C)NC(=O)c1csc(C2=N[C@H]3c4csc(n4)[C@H]4NC(=O)c5csc(n5)[C@H]([C@@](C)(O)[C@@H](C)O)NC(=O)[C@H]5CSC(=N5)/C(=C\C)NC(=O)[C@H]([C@@H](C)O)NC(=O)c5csc(n5)[C@]3(CC2)NC(=O)[C@H](C)NC(=O)C(=C)NC(=O)[C@H](C)NC(=O)[C@H](C(C)CC)N[C@@H]2C=Cc3c([C@H](C)O)cc(nc3[C@H]2O)C(=O)O[C@@H]4C)n1)C(N)=O (stereo partly specified)	0[10 µg/mL]
CCc1nc(N2CCCC(C)C2)c2oc3ccccc3c2n1 (stereo unspecified)	40
N#CCC(=O)Nc1sc2c(c1C(N)=O)CCCC2	u
CCc1c(C#N)c(SCCC(=O)Nc2cccc(OC)c2)nc2c1C(=O)CC(C)(C)C2	0
Cc1ncc([N+](=O)[O-])n1CC(O)CCl (stereo unspecified)	40[10 µg/mL]
COc1ccccc1C1=Nc2cccc3cccc(c23)N1	0
CCOC(=O)C(CSCC(=O)c1ccc(Cl)cc1Cl)NC(=O)OC(C)(C)C (stereo unspecified)	40
O=C(O)c1cccc(NS(=O)(=O)c2cccc3cccnc23)c1	40
COc1ccc(C2CC(c3c(Cl)cccc3Cl)n3nc(N)nc3N2)cc1 (stereo unspecified)	0
COc1ccc(NC(=O)Cn2c(-c3ccc(OC)cc3)cn(-c3ccc(C)cc3)c2=O)cc1	40
CC(C)(C)OC(=O)C1C(=O)CC(C)(O)C(C(=O)OC(C)(C)C)C1c1cccnc1 (stereo unspecified)	0
CC(=O)c1cccc(N(CC(=O)O)S(C)(=O)=O)c1	40
CCc1nc(SCC(=O)Nc2ccc3c(c2)OCCO3)c2oc3ccccc3c2n1	0
O=C(CN(c1ccc(F)cc1)S(=O)(=O)c1ccc2c(c1)OCCO2)NCC1CCCO1 (stereo unspecified)	0
CCN1C(=O)C(O)(CC(=O)c2ccc3c(c2)OCCO3)c2ccccc21 (stereo unspecified)	40
CCCCCCn1c(SCC(=O)c2ccccc2)nc2c1c(=O)[nH]c(=O)n2C	0
CCn1c(C(=O)Nc2ccsc2C(=O)OC)cc2sc(Cl)cc21	0
COc1ccc(C(=O)Nc2ccccc2-c2nnn(CC(=O)NCc3ccco3)n2)cc1	40
O=C(CCCc1c[nH]c2ccccc12)N1CCN(c2ccc(N3CCOCC3)nn2)CC1	0
Cc1ccc(S(=O)(=O)N2CCCC2C(=O)Nc2nccs2)cc1 (stereo unspecified)	0
O=C(Nc1ccc(N2CCOCC2)cc1)c1cnsn1	0
CCOC(=O)N1CCC(NC(=O)C2CCCCN2S(=O)(=O)c2ccc(F)cc2)CC1 (stereo unspecified)	0
CCOC(=O)COc1nc(C)c(Br)c(OC)n1	0
CCOc1ccc(C2c3c(oc4ccccc4c3=O)C(=O)N2CCCN2CCOCC2)cc1 (stereo unspecified)	0
CCCSc1nnc(Cn2c(=O)sc3ccccc32)n1-c1ccccc1	0
CCCN(CCC)C(=O)COc1cc(=O)n(CC)c2ccccc12	0
CCNC(=O)C1CC(=O)N(Cc2ccc(F)cc2)C(=Nc2ccc(OC)cc2)S1 (stereo unspecified)	40
C[C@]12C=CC(=O)C=C1CC[C@@H]1[C@@H]2C(=O)C[C@@]2(C)[C@H]1CC[C@]2(O)C(=O)CO	0[10 µg/mL]
O=C(Nc1cccc(C(F)(F)F)c1)c1cc(-c2ccc(F)cc2)on1	0
CCc1ccc(OCC(=O)Nc2ncc3c(n2)CC(C)(C)CC3=O)cc1	0
Cc1cc(C)cc(CC(Cc2nc3ccccc3[nH]2)c2nc3ccccc3[nH]2)c1 (stereo unspecified)	0
Cc1ccc(OCc2nc(-c3ccc(-n4cccc4)cc3)no2)cc1C	0
CO/N=C(\C)c1ncc(C(F)(F)F)cc1N1CCOCC1	0
Cc1c(Cl)c(C(=O)Nc2nc3ccccc3n2CCN2CCCCC2)nn1C	0
COc1cccc(NC(=O)CSc2nnc(Cc3cccn3C)n2-c2ccc(F)cc2)c1	0
O=C(O)C1CCCN1S(=O)(=O)c1ccc(Cl)c(Cl)c1 (stereo unspecified)	0
CC(C)CC(=O)NN1CCCCC1	0
CCN(CC)c1ccc(NC(=O)C2CCCN(S(=O)(=O)c3cnc[nH]3)C2)c(C)c1 (stereo unspecified)	0
COC(=O)c1ccccc1NC(=O)Nc1nnc(N2CCC(C)CC2)s1	0

20 consecutive compounds out of the list so far:
SMILES	V. cholerae QS
Cc1ccc(S(=O)(=O)N2CCCC2C(=O)Nc2nccs2)cc1 (stereo unspecified)	0
O=C(Nc1ccc(N2CCOCC2)cc1)c1cnsn1	0
CCOC(=O)N1CCC(NC(=O)C2CCCCN2S(=O)(=O)c2ccc(F)cc2)CC1 (stereo unspecified)	0
CCOC(=O)COc1nc(C)c(Br)c(OC)n1	0
CCOc1ccc(C2c3c(oc4ccccc4c3=O)C(=O)N2CCCN2CCOCC2)cc1 (stereo unspecified)	0
CCCSc1nnc(Cn2c(=O)sc3ccccc32)n1-c1ccccc1	0
CCCN(CCC)C(=O)COc1cc(=O)n(CC)c2ccccc12	0
CCNC(=O)C1CC(=O)N(Cc2ccc(F)cc2)C(=Nc2ccc(OC)cc2)S1 (stereo unspecified)	40
C[C@]12C=CC(=O)C=C1CC[C@@H]1[C@@H]2C(=O)C[C@@]2(C)[C@H]1CC[C@]2(O)C(=O)CO	0[10 µg/mL]
O=C(Nc1cccc(C(F)(F)F)c1)c1cc(-c2ccc(F)cc2)on1	0
CCc1ccc(OCC(=O)Nc2ncc3c(n2)CC(C)(C)CC3=O)cc1	0
Cc1cc(C)cc(CC(Cc2nc3ccccc3[nH]2)c2nc3ccccc3[nH]2)c1 (stereo unspecified)	0
Cc1ccc(OCc2nc(-c3ccc(-n4cccc4)cc3)no2)cc1C	0
CO/N=C(\C)c1ncc(C(F)(F)F)cc1N1CCOCC1	0
Cc1c(Cl)c(C(=O)Nc2nc3ccccc3n2CCN2CCCCC2)nn1C	0
COc1cccc(NC(=O)CSc2nnc(Cc3cccn3C)n2-c2ccc(F)cc2)c1	0
O=C(O)C1CCCN1S(=O)(=O)c1ccc(Cl)c(Cl)c1 (stereo unspecified)	0
CC(C)CC(=O)NN1CCCCC1	0
CCN(CC)c1ccc(NC(=O)C2CCCN(S(=O)(=O)c3cnc[nH]3)C2)c(C)c1 (stereo unspecified)	0
COC(=O)c1ccccc1NC(=O)Nc1nnc(N2CCC(C)CC2)s1	0

Some of the compounds tested. The share of hits here may be higher or lower than overall.
